PKD1 inh: inhibitors of human PKD1 kinase. Q15139. PKD1 kinase fluorescence polarization assay. inhibition, %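 (about 10 µM by stock and volumes)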. 200,000 tested, 0.056% active;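 active = inhibition of 50% or more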;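 note: controls were vehicle for no effect and a reference inhibitor for full effect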
GALR2 ag: activates the human galanin receptor 2; O43603; GALR2-expressing cells, agonist activation read-out; activation, %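 (tested at 5 µM)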; 140,000 tested, 0.48% active; AID 803;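 active = above mean plus 3 SD of all compounds, about 5% in these data, not always enough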;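 note: 0% = vehicle buffer wells and 100% = reference agonist at full effect; tested in CHO reporter cells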
Target sequence (O43603 whole entry, looked up): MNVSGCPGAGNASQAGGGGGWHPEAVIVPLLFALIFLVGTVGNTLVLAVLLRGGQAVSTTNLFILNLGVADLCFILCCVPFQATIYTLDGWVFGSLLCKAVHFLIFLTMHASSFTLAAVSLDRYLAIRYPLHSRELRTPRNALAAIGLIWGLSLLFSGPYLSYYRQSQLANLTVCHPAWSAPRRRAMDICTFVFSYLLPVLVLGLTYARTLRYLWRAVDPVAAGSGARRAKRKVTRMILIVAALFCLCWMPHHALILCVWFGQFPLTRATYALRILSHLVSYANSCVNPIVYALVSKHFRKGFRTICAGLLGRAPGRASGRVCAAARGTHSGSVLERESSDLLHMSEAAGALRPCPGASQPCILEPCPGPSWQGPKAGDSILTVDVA
HSV replic up: HSV replication enhancement. AID 1956. maximum fold increase. 220,000 tested, 0.005% active. HSV replication augmentation in cells, fold increase;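 active = peak rise of 1.5-fold or more in the series; inconclusive = self-fluorescent or not available for retest; tested in PC3 cells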;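 note: first round at 10 µM; read as green reporter fluorescence; hits show the peak of a series up to 25 µM; 1 = signal of infected wells without compound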
Insulin prom inh: TRM-6 insulin promoter activity inhibition; TRM-6 cells (human fetal islet line), insulin promoter-eGFP reporter, imaging; reporter expression induced with tamoxifen; inhibition, % at 2 µM; 130,000 tested, 0.9% active;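 active = inhibition above the mean plus 3 SD, with well images judged a real hit on visual review, cut at about 60% in these data, passing the limit was not always enough; inconclusive = inhibition over the cutoff but images rejected on review; inactive = inhibition not above the cutoff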
RGS16-Gao: regulators of human RGS16-Galphao interaction; binding response (% of control), % at 10 µM; 220,000 tested, 0.38% active; bead-based flow cytometry RGS16-Galphao binding, fluorescence; actives lie on both sides;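 active = below 25% or above 175%, edge rows of some plates excepted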;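 note: Galphao activated by GDP with aluminum fluoride before binding; 100% = wells without compound and 0% = beads without RGS; some results beyond the cut were filed as inactive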
Target sequence (O15492 whole entry, looked up): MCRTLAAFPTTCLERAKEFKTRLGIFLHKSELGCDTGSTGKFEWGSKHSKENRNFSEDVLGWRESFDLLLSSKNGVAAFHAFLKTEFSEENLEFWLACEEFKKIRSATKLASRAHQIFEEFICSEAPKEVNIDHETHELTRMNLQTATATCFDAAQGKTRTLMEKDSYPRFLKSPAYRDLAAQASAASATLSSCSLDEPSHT
Target sequence (P09471 whole entry, looked up): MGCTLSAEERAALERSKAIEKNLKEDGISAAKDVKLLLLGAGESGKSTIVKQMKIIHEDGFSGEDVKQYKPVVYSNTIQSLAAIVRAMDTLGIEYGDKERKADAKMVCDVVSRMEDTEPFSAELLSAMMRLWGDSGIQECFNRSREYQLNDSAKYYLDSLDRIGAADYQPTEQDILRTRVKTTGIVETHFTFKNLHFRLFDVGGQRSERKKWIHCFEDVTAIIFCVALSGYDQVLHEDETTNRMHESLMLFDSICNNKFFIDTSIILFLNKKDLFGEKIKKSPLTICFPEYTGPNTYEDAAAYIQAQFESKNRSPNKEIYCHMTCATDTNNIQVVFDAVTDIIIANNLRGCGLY
Insulin prom inh cell count: recorded beside Insulin prom inh, whose call it bears; normalized cell count, %; measured here: cell count, toxicity; reference of the scale not given here;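 cells exposed to compound for 48 h; stained nuclei by imaging scaled within each plate; lower means fewer cells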
HSV replic up primary fold: second read-out of HSV replic up, no call of its own (marks repeat the call); fold increase; compound at 10 µM; measured here: primary screen fold increase 10 uM; tested in PC3 cells;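 GFP signal in the first replicate; 1 = infected wells without compound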
Active calls of the source: *; i = inactive; ? = inconclusive; . = not tested or not shown.

SMILES	PKD1 inh	GALR2 ag	HSV replic up	HSV replic up primary fold	Insulin prom inh	Insulin prom inh cell count	RGS16-Gao
CCCn1c(OC)nc2c1c(=O)n(C)c(=O)n2C	1	-2.9	i	0.99	0	91	94
CCOC(=O)CC1C(=O)NCCN1S(=O)(=O)c1ccc(Br)cc1 (stereo unspecified)	1	.	i	1	-18	60	92
CCOC(=O)c1sc(NC(=O)COC(=O)c2ccco2)nc1C	-4	-0.7	i	1	-29	97	97
O=P(C1=C(N2CCOCC2)/C(=C\c2ccccc2)CC1)(N1CCOCC1)N1CCOCC1	-1	-0.2	i	1	.	.	98
Cc1onc(-c2c(Cl)cccc2Cl)c1-c1nnc(-c2ccc(Cl)cc2)o1	.	.	i	1.1	.	.	92
CSc1ncccc1C(=O)OCc1ccccc1F	-2	-1.4	i	0.86	.	.	100
Cc1[nH]nc(-c2ccc(O)cc2O)c1Oc1ccccc1	-2	-1.0	i	1	.	.	97
Brc1ccc(OCc2nc(-c3ccccn3)n[nH]2)cc1	-8	-1.2	i	0.94	59	74	98
Cc1cccc(NC(=O)Cn2cnc3c(oc4ccccc43)c2=O)c1C	-2	.	i	0.76	-21	85	106
Cc1ccc(C)c(NC(=O)C2(C)CC3c4ccccc4C2c2ccccc23)c1 (stereo unspecified)	2	-2.0	i	1	15	127	79
CCOC(=O)C1=C(C)NC(=O)NC1c1cccnc1 (stereo unspecified)	6	-1.4	i	0.88	14	126	85
CCO[C@H]1OC(C(=O)N2CCN(Cc3ccccc3)CC2)=C[C@@H](c2ccccc2)[C@@H]1CCCO	-9	.	i	0.88	.	.	108
CCCC1CCC(C(=O)n2nc(N)c3cc4ccc(OC)cc4nc32)CC1 (stereo unspecified)	0	-0.6	.	.	20	144	93
O=C1/C(=C\c2ccc(O)cc2)SC(=S)N1c1cccnc1	-9	.	?	.	.	.	96
Cc1ccc(-c2nc(CSCC(=O)NCCN3CCN(Cc4ccccc4)CC3)c(C)o2)cc1	-3	-2.0	i	1	.	.	99
Cc1ccoc1C(=O)Nc1ccc(CC(=O)O)cc1	-6	-1.1	i	1.1	-18	42	104
CC(C)C(=O)N=c1sc2cc(F)cc(F)c2n1C	8	-3.3	i	0.86	.	.	99
CC(C)c1ccccc1-n1c(SCC(=O)N2CCN(c3ccccc3)CC2)nnc1-c1cccnc1	-4	-2.6	i	0.84	6	80	101
O=C(CCSc1nnc(-c2ccccc2)o1)N1CCOCC1	-2	-0.5	i	0.92	37	85	93
N#C/C(=N\Nc1ccc(F)cc1)C(=N)N1CCCCCC1	-2	.	i	1	18	118	104
COC(=O)CSc1nc2cc3c(cc2cc1C#N)OCO3	-2	-3.4	i	0.91	23	108	93
Cc1ccccc1NC(=O)CN1C(=S)NC(C)(C)CC1C (stereo unspecified)	3	-1.7	i	0.98	31	74	141
Nc1nnc(SCC(=O)c2ccc3ccccc3c2)s1	-2	-1.0	.	.	30	95	113
CCOc1ccc2[nH]c(=O)c(CN(CCOC)C(=O)N3CCOCC3)cc2c1	-1	-2.0	i	0.99	51	92	100
COc1ccc(S(=O)(=O)N2CCC(C(=O)N3CCc4ccccc4C3)CC2)cc1C	5	-0.6	i	0.85	19	154	106
COC(=O)c1ccc(S(=O)(=O)NCc2cccc(OC)c2)n1C	-3	-2.0	i	0.87	.	.	97
O=C(Oc1ccc2c(c1)OCO2)c1ccc(Br)c(S(=O)(=O)N2CCOCC2)c1	-13	-0.8	.	.	44	147	82
O=C(CC(c1ccccc1O)N1CCCCC1)N1CCCCC1 (stereo unspecified)	-4	-1.2	i	0.59	.	.	102
Cc1cc(NC(=O)c2cc(-c3ccccc3)on2)n(-c2ccccc2)n1	0	-1.6	i	0.9	31	100	102
O=C1NC(=Nc2ccccc2)S/C1=C/c1cccnc1	-1	.	i	0.95	.	.	100
NCC12CC3CC(CC(O)(C3)C1)C2	1	-2.6	i	0.89	11	103	102
CC(=O)Nc1ccc(S(=O)(=O)N2CCCC2C(=O)O)cc1 (stereo unspecified)	11	-3.3	i	1.2	-7	136	101
CCOC(=O)Cc1cc(=O)n2[nH]c(C)c(-c3ccccc3)c2n1	8	-0.6	i	1.1	-24	85	102
Cc1cc(=O)n2ncnc2n1COCCO	7	-1.1	i	1	-62	82	97
CCS(=O)(=O)N1N=C(c2cccc(NS(C)(=O)=O)c2)CC1c1ccc(C)cc1 (stereo unspecified)	13	.	i	1	-230	52	101
COc1cccc(C(=O)OCCCN(C)C)c1	-6	-0.2	i	1	-8	107	98
O=c1sc2ccccc2n1CCOc1ccccc1	-13	-1.8	i	1.1	-27	167	102
CC(C)(C)NC(=O)C(OC(=O)Cn1nnc(-c2ccc(F)cc2)n1)c1ccncc1 (stereo unspecified)	-6	-2.0	i	0.81	-64	140	104
O=C(Cn1cnc2ccccc2c1=O)Nc1ccc2c(c1)OCCO2	1	-1.8	i	0.9	.	.	90
COCCN(C(=O)Cc1cccs1)C(C(=O)NCc1ccc(OC)cc1)c1ccccc1 (stereo unspecified)	1	-3.6	i	0.88	-50	60	107
CCC(C)Sc1nc2ccccc2n1CC(=O)O (stereo unspecified)	0	-1.9	i	0.95	.	.	106
CCOC(=O)C(CCCOc1ccc(C)cc1)C(=O)OCC	1	-0.8	i	0.95	6	65	98
CC(=O)c1ccc(C(=O)N2CCC(CO)(Cc3cccc(C(F)(F)F)c3)CC2)cc1	-4	.	i	1	.	.	102
Cc1cccc(NC(=O)CSc2nnc(CCCCCNC(=O)OC(C)(C)C)o2)c1C	-8	-1.3	i	0.85	.	.	102
CC(CN(C)Cc1ccccc1)OC(=O)c1ccccc1F (stereo unspecified)	-8	0.6	i	1.1	30	74	101
O=C(NN=C1c2ccccc2-c2ccccc21)c1ccccn1	8	-1.8	i	0.84	.	.	111
CC(=O)c1ccc(OCCCC(=O)NC(C)c2ccc(S(N)(=O)=O)cc2)cc1 (stereo unspecified)	-4	.	i	0.91	.	.	103
CC1CCCCC1NC(=O)c1cc2c(s1)CS(=O)(=O)C2 (stereo unspecified)	-16	-0.6	i	0.97	38	108	98
Cc1cccc(/C=N/NC(=O)Cn2nc(C)cc2C)n1	-8	-1.6	i	1	26	179	98
COC(=O)C(F)(F)Sc1c(C)[nH]c2ccccc12	-1	-0.9	i	0.91	.	.	117
CC1CCCC(NC(=O)COC(=O)c2ccc3ccccc3n2)C1C (stereo unspecified)	-11	-1.4	i	0.84	-22	70	105
COC(=O)c1cccc(Nc2ncnc3sccc23)c1	9	.	i	0.93	.	.	105
CCOCCn1c(COc2ccc(C)cc2)nc2ccccc21	-18	-1.1	i	1.1	-11	127	89
O=C(CN1CCN(CCN2C(=O)c3cccc4cccc(c34)C2=O)CC1)c1ccc(Cl)cc1	3	0.2	i	0.65	-94	125	97
COc1ccc(/C=C/C(=O)Nc2ccc(-c3nnc4n3CCCCC4)cc2)c(OC)c1	-5	-1.6	i	0.86	-20	83	108
COc1cc(CC(=O)NNC(=O)c2cc(C)oc2C)cc(OC)c1OC	-9	-0.5	i	0.92	.	.	92
COc1oc(-c2ccccc2)nc1C(F)(F)F	7	-2.3	i	0.86	-19	98	91
COc1cc(/C=C2/C(=O)N(c3ccccc3)N=C2C)ccc1OS(=O)(=O)c1ccccc1	9	-0.5	i	0.99	6	80	94
O=C(NCCOc1cccc2cccnc12)c1cccs1	-1	.	i	1.1	.	.	103
CCC(C)N1CCCC1C(=O)Nc1c(C)cc(C)cc1C (stereo unspecified)	-6	-1.6	i	1	-105	121	107

Some of the entries above, reformatted:
Values in the order: PKD1 inh | GALR2 ag | HSV replic up | HSV replic up primary fold | Insulin prom inh | Insulin prom inh cell count | RGS16-Gao
> CCC(C)Sc1nc2ccccc2n1CC(=O)O (stereo unspecified)
 : 0 | -1.9 | i | 0.95 | . | . | 106
> CCOC(=O)C(CCCOc1ccc(C)cc1)C(=O)OCC
 : 1 | -0.8 | i | 0.95 | 6 | 65 | 98
> CC(=O)c1ccc(C(=O)N2CCC(CO)(Cc3cccc(C(F)(F)F)c3)CC2)cc1
 : -4 | . | i | 1 | . | . | 102
> Cc1cccc(NC(=O)CSc2nnc(CCCCCNC(=O)OC(C)(C)C)o2)c1C
 : -8 | -1.3 | i | 0.85 | . | . | 102
> CC(CN(C)Cc1ccccc1)OC(=O)c1ccccc1F (stereo unspecified)
 : -8 | 0.6 | i | 1.1 | 30 | 74 | 101
> O=C(NN=C1c2ccccc2-c2ccccc21)c1ccccn1
 : 8 | -1.8 | i | 0.84 | . | . | 111
> CC(=O)c1ccc(OCCCC(=O)NC(C)c2ccc(S(N)(=O)=O)cc2)cc1 (stereo unspecified)
 : -4 | . | i | 0.91 | . | . | 103
> CC1CCCCC1NC(=O)c1cc2c(s1)CS(=O)(=O)C2 (stereo unspecified)
 : -16 | -0.6 | i | 0.97 | 38 | 108 | 98
> Cc1cccc(/C=N/NC(=O)Cn2nc(C)cc2C)n1
 : -8 | -1.6 | i | 1 | 26 | 179 | 98
> COC(=O)C(F)(F)Sc1c(C)[nH]c2ccccc12
 : -1 | -0.9 | i | 0.91 | . | . | 117
> CC1CCCC(NC(=O)COC(=O)c2ccc3ccccc3n2)C1C (stereo unspecified)
 : -11 | -1.4 | i | 0.84 | -22 | 70 | 105
> COC(=O)c1cccc(Nc2ncnc3sccc23)c1
 : 9 | . | i | 0.93 | . | . | 105
> CCOCCn1c(COc2ccc(C)cc2)nc2ccccc21
 : -18 | -1.1 | i | 1.1 | -11 | 127 | 89
> O=C(CN1CCN(CCN2C(=O)c3cccc4cccc(c34)C2=O)CC1)c1ccc(Cl)cc1
 : 3 | 0.2 | i | 0.65 | -94 | 125 | 97
> COc1ccc(/C=C/C(=O)Nc2ccc(-c3nnc4n3CCCCC4)cc2)c(OC)c1
 : -5 | -1.6 | i | 0.86 | -20 | 83 | 108
> COc1cc(CC(=O)NNC(=O)c2cc(C)oc2C)cc(OC)c1OC
 : -9 | -0.5 | i | 0.92 | . | . | 92
> COc1oc(-c2ccccc2)nc1C(F)(F)F
 : 7 | -2.3 | i | 0.86 | -19 | 98 | 91

Additional records follow.
SMILES	PKD1 inh	GALR2 ag	HSV replic up	HSV replic up primary fold	Insulin prom inh	Insulin prom inh cell count	RGS16-Gao
COC(=O)CCC(=O)OC1(C)C(=O)C=C2C=C(C3CC3)N(C3CCCCC3)C=C2C1=O (stereo unspecified)	.	.	i	0.85	.	.	90
COC(=O)C1=C(SC)N(c2ccc(OC)cc2)C(c2ccccc2)CC1=O (stereo unspecified)	-4	0.2	i	0.98	-25	106	110
O=C(c1cc(F)ccc1F)C1CCCN(C(=O)c2ccc(F)cc2Cl)C1 (stereo unspecified)	-8	.	i	0.98	.	.	105
C[C@@H]1C=C(C(=O)NC2CC2)O[C@H](OCc2ccc(CO)cc2)C1	.	.	i	0.92	.	.	104
Cc1nn(Cc2ccc(Cl)c(Cl)c2)c(C)c1NC(=O)c1cn(-c2ccccc2)nc1-c1ccccc1	1	-1.6	i	0.87	-7	93	106
COc1ccc(C(=O)NCC(c2cccnc2)N2CCN(c3ccc(F)cc3)CC2)cc1OC (stereo unspecified)	-3	-1.2	i	0.91	.	.	110
O=S(=O)(c1ccc(S(=O)(=O)N(Cc2ccccc2)Cc2ccco2)cc1)N1CCCC1	3	-1.9	i	1.2	-494	43	.
CC(C(=O)NCCc1nc2ccccc2[nH]1)n1cc([N+](=O)[O-])cn1 (stereo unspecified)	1	.	i	1.1	.	.	101
CCOC(=O)c1c(NC(=O)c2c(C(=O)O)cccc2[N+](=O)[O-])sc(C)c1C	-10	.	i	0.95	.	.	48
CCN1c2ccccc2-c2nc3ccccc3n2C1c1cccs1 (stereo unspecified)	-10	0.5	i	0.99	-21	93	136
COc1ccccc1Nc1nc(N)nc(CN2CCN(Cc3ccc4c(c3)OCO4)CC2)n1	.	.	i	0.88	.	.	102
COc1cc(O)c(CCC(=O)c2cc(OC)c(OC)c(OC)c2)c(OC)c1	-6	0.2	i	1	-3	80	93
CC(C(=O)OCC(=O)c1ccc([N+](=O)[O-])cc1)N1C(=O)C2C3CCC(C3)C2C1=O (stereo unspecified)	-3	.	i	0.93	.	.	102
O=CN1CCN(C(=S)Nc2ccc(OC(F)F)cc2)CC1	.	.	i	1.2	.	.	102
CC1CCN(CC(=O)Nc2ccccc2C(=O)c2ccccc2)CC1	1	.	i	1	.	.	98
CC(NC(=O)Cc1cccs1)C(c1cccs1)N1CCOCC1 (stereo unspecified)	-11	-0.2	i	1.2	19	136	7.5*
CCn1nnc(NC(=O)COc2ccc(C3CCCCC3)cc2)n1	-1	-0.7	i	0.94	-17	130	100
CC(C)(CC(=O)O)CC(=O)NCc1c(Cl)cccc1Oc1ccccc1	.	.	i	1	.	.	105
CS(=O)(=O)N(CC(=O)NC1CCCCC1)Cc1ccc(Cl)cc1	-1	-2.4	i	0.9	-12	101	103
COc1ccccc1NC(=O)CN1CCSc2ccccc21	4	.	i	1.3	.	.	100

Screening results from PubChem BioAssay.
